Screening data: PubChem, ICCB-Longwood Screening Facility, Harvard Medical School
Polio RdRp inh: inhibitors of poliovirus RNA polymerase binding and polymerization; P03300; poliovirus polymerase elongation, fluorescence polarization; hits give low values; % elongation, % (compound at 16.7 µg/mL); 150,000 compounds, 0.66% hits; AID 588519; in the data active = % elongation below about 90%; note: some results filed as inactive read as strong as hits
Target sequence (P03300 1749-2209 limits assumed): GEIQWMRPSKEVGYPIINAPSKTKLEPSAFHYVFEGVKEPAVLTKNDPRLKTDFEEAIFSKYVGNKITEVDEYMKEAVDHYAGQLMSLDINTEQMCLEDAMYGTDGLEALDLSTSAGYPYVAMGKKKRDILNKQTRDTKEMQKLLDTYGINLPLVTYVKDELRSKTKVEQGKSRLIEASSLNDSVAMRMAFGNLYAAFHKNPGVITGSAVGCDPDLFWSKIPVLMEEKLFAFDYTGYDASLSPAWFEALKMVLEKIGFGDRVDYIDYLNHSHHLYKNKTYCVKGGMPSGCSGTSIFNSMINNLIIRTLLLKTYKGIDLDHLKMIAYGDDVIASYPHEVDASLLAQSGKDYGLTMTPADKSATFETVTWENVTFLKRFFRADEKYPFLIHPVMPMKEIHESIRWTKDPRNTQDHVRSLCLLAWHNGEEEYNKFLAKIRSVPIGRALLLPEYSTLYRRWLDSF
Polio RdRp inh intensity: further read-out of Polio RdRp inh, marked with its call; % elongation; measured here: total intensity read-out; formula for this scale not given here;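 total fluorescence in place of polarization; lower means less elongation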
Active calls of the source: *.

The line under a structure holds: Polio RdRp inh	Polio RdRp inh intensity
- COc1ccccc1N1CCN(C(=O)c2cc3ccc4ccc(C)[nH]c4c3n2)CC1
    108	105
- CC(=O)Nc1ccc(C)cc1-c1nc2ccccc2n(Cc2cccc(Br)c2)c1=O
    113	118
- CCN(C(=O)Nc1cn(CC(C)C)c(=O)c2ccccc12)c1cc(C)ccc1C
    99	105
- COc1ccc(-c2cc(C(=O)Nc3c(C(=O)c4ccc(C)cc4)oc4ccccc34)no2)cc1
    107	97
- Cc1cc(O)c(C(c2ccccc2)N2CCN(c3ccccc3)CC2)c(=O)n1Cc1ccco1 (stereo not given)
    105	109
- CCOC(=O)c1c(-c2ccc(C)cc2)csc1NC(=O)c1cc(=O)c2cc(C)cc(C)c2o1
    96	83
- Cc1ccc(-n2nc(C(=O)N3CCN(c4ccccc4F)CC3)c(=O)n(C)c2=O)cc1
    101	108
- Cc1c(C(=O)N(C)C)sc2c1c(=O)n(-c1ccc(Cl)c(Cl)c1)c(=O)n2CC(=O)Nc1cccc(C(F)(F)F)c1
    115	117
- COC(=O)c1ccc(NC(=O)c2c(NCc3ccc(C)o3)sc3c2CCCC3)cc1
    105	117
- CCOc1ccc(OCC)c(NC(=O)c2c(C)nn(-c3ccccc3)c2-n2cccc2)c1
    101	105
- COc1cc(NC(=O)CSc2nc(-c3ccccc3)no2)cc(OC)c1
    103	107
- CCN(CC)c1ccc2cc(-c3nc(-c4ccccc4F)no3)c(=O)oc2c1
    158	280
- CS(=O)(=O)N(CC(=O)Nc1ccc(Br)cc1)c1ccccc1Br
    103	107
- COc1cccc(CNC(=O)c2cccn2-c2nnc(N3CCCC3)s2)c1
    115	117
- CCOC(=O)/C(C#N)=C/c1ccc(-c2ccccc2)o1
    106	107
- O=C(NCc1ccc2c(c1)CCN2C(=O)c1ccccc1)c1cc2ccccc2[nH]1
    101	95
- O=C(Cn1ncc2c3ccccc3n(Cc3ccccc3)c2c1=O)NCCCN1CCCCC1
    109	111
- O=C(NCc1cccc(Cl)c1)c1cc2c(s1)-c1ccccc1OC2
    110	107
- COc1ccc(CN2CCN(C(=O)COc3ccccc3)CC2)c(OC)c1
    101	89
- COc1ccc(CNC(=O)c2cc3cc(S(=O)(=O)N4CCCCC4)ccc3n2C)c(OC)c1
    112	113
- O=C(c1ccc2c(c1)N(Cc1ccccc1F)C(=O)c1ccccc1S2=O)N1CCOCC1 (stereo not given)
    104	102
- Cc1ccc(C(=O)N2CCc3cc(CNC(=O)CCc4ccccc4)ccc32)cc1
    101	97
- CCOc1ccc(C(=O)c2cn(CC(=O)Nc3ccc(Cl)cc3)c3cc4c(cc3c2=O)OCO4)cc1
    107	109
- CCn1c(=O)c2sccc2n2c(CCCC(=O)Nc3ccc(C)cc3)nnc12
    120	115
- COCCCNC(=O)C1CCN(C(=O)c2cnn(-c3ccccc3)c2-n2cccc2)CC1
    108	110
- Cc1csc2nc(COc3ccc(NC(=O)C(C)C)cc3)cc(=O)n12
    105	108
- O=C(CSc1oc(-c2ccc(F)cc2)nc1S(=O)(=O)c1ccccc1)c1ccc(Cl)cc1
    106	109
- CC(NC(=O)C1CCN(S(=O)(=O)Cc2ccccc2)CC1)c1ccccc1 (stereo not given)
    108	108
- CN(C)S(=O)(=O)c1ccc2c(c1)c(=O)c(C(=O)N1CCN(c3cccc(Cl)c3)CC1)cn2C
    106	112
- COc1cc(Cl)c(NC(=O)c2cc3ccccn3n2)c(OC)c1
    105	105
- Cc1cc(C)c(Cn2c(=O)n(Cc3ccccc3)c(=O)c3c(C)c(C)sc32)c(C)c1
    110	113
- COc1ccc(-c2nc3cc(NC(=O)COc4ccc(C)c(C)c4)ccc3o2)cc1
    111	110
- O=S1(=O)c2ccccc2N(Cc2ccccc2F)c2ccccc21
    102	106
- CCOc1ccccc1C(=O)Nc1ccc(S(=O)(=O)Nc2ncccn2)cc1
    103	104
- Cc1ccccc1-n1cc(-c2ccccc2)nc1SCC(=O)Nc1ccc(F)cc1
    107	111
- O=C(c1ccc2c(c1)N(Cc1ccccc1)C(=O)c1ccccc1S2=O)N1CCC(Cc2ccccc2)CC1 (stereo not given)
    107	110
- Cc1ccc(NC(=O)CCS(=O)(=O)c2ccc(Br)s2)c(Br)c1
    107	111
- Cc1ccccc1CN1C(=O)CN=C(c2ccccc2)c2cc(Cl)ccc21
    105	106
- COc1ccc(C2=C(C(C)=O)Sc3nnc(-c4ccccc4)n3N2C(C)=O)cc1
    102	107
- COc1ccccc1/C=C/c1nc(C#N)c(N2CCN(C)CC2)o1
    108	106

Among those listed so far, 2 contain a cyano group:
The line under a structure holds: Polio RdRp inh	Polio RdRp inh intensity
- CCOC(=O)/C(C#N)=C/c1ccc(-c2ccccc2)o1
    106	107
- COc1ccccc1/C=C/c1nc(C#N)c(N2CCN(C)CC2)o1
    108	106

Following part.
The line under a structure holds: Polio RdRp inh	Polio RdRp inh intensity
- Cc1cccc(-n2ncc(C(=O)N3CCN(c4ccc(C)cc4C)CC3)c2C2CCN(C(=O)OC(C)(C)C)CC2)c1
    110	110
- CCc1cccc(C)c1NC(=O)CSc1n[nH]c(-c2ccccc2)n1
    108	109
- Cc1cccc(NC(=O)CSc2nc3c([nH]c4ccccc43)c(=O)n2C)c1
    102	107
- COc1ccc(NC(=O)C2(c3cccs3)CCOCC2)cc1Cl
    110	106
- Cc1cc(C)cc(N(CC(=O)NCc2ccccc2Cl)S(=O)(=O)c2c(C)[nH]c(=O)[nH]c2=O)c1
    107	102
- CC1Cc2cc(S(=O)(=O)NCc3ccc(N(C)C)cc3)ccc2N1C(=O)C1CCC1 (stereo not given)
    102	94
- COc1cc(-c2nc3ccccn3c2Nc2ccccc2C)ccc1O
    106	109
- CC(=O)Nc1c(C)nn(-c2ccccc2)c1N1CCC(C(=O)Nc2cc(Cl)ccc2C)CC1
    102	106
- COc1ccc(-c2noc(CC(=O)N(C)c3cc(Cl)c(OC)cc3OC)n2)cc1
    106	105
- CCCCOc1ccc(Cn2c(=O)oc3ccccc32)cc1
    107	106
- Cc1ccc(-n2ncc(C(=O)NCc3ccccn3)c2C2CCN(C(=O)OC(C)(C)C)CC2)cc1C
    94	93
- COc1ccccc1NC(=O)Cn1nnc(C(=O)NCc2ccc3c(c2)OCO3)c1N
    108	104
- O=C(c1ccc2c(c1)N(Cc1ccccc1F)C(=O)c1ccccc1S2(=O)=O)N1CCc2ccccc21
    110	109
- COc1ccc(NC(=O)c2sc3nc4c(cc3c2N)CN(C(C)C)CC4)c(OC)c1
    109	109
- COc1ccc(-c2c3c(=O)n(C)c(=O)n(C)c3c3c(-c4cccc(C)c4)nc4ccccc4n23)cc1
    107	110
- COC(=O)c1scc(-c2ccc(C)cc2)c1S(=O)(=O)N1CCN(c2ccc(OC)cc2)CC1
    110	111
- O=C(CC(c1cccs1)N1Cc2ccccc2C1=O)Nc1ccc(F)c(F)c1 (stereo not given)
    106	109
- Cc1cc(C)nc(NS(=O)(=O)c2ccc(NC(=O)c3nc(SC(C)C)ncc3Cl)cc2)n1
    104	110
- COc1cc(C(=O)NCc2ccc3c(c2)CCN3C(=O)c2ccncc2)cc(OC)c1OC
    99	105
- O=S(=O)(c1cccc(F)c1)N1CCC(c2nc3ccccc3s2)CC1
    106	112

Reformatted: entries from further up
Structure: COc1ccc(CNC(=O)c2cc3cc(S(=O)(=O)N4CCCCC4)ccc3n2C)c(OC)c1
  Polio RdRp inh = 112 | Polio RdRp inh intensity = 113

Structure: CC1Cc2cc(S(=O)(=O)NCc3ccc(N(C)C)cc3)ccc2N1C(=O)C1CCC1 (stereo not given)
  Polio RdRp inh = 102 | Polio RdRp inh intensity = 94

Structure: CCOC(=O)/C(C#N)=C/c1ccc(-c2ccccc2)o1
  Polio RdRp inh = 106 | Polio RdRp inh intensity = 107

Structure: COc1ccc(NC(=O)C2(c3cccs3)CCOCC2)cc1Cl
  Polio RdRp inh = 110 | Polio RdRp inh intensity = 106

Continued.
The line under a structure holds: Polio RdRp inh	Polio RdRp inh intensity
- Cc1ccc(C)c(NC(=O)CSc2cn(CC(=O)N3CCCC3)c3ccccc23)c1
    114	111
- Cc1ccc(C)c(N2CCN(S(=O)(=O)c3cc(C(=O)Nc4ccccc4C(F)(F)F)ccc3F)CC2)c1
    106	111
- CCOc1ccccc1C(=O)N1CCC(c2nc3ccccc3o2)CC1
    99	108
- COc1ccccc1-c1nnc(C2CCN(S(=O)(=O)c3ccc(F)c(C)c3)CC2)o1
    105	110
- CCOc1ccc(NC(=O)Cn2cc(S(=O)(=O)N3CCN(c4ccccc4F)CC3)c3ccccc3c2=O)cc1
    114	112
- CC1(C)CC(=O)c2cc(C(=O)Nc3ccc(Cl)cc3)c(=O)[nH]c2C1
    108	113
- CCN(Cc1ccccc1)c1nc2c(S(=O)(=O)c3ccccc3)nnn2c2ccc(Cl)cc12
    105	107
- COc1ccc(CCNC(=O)c2ccc3c(c2)N=C(C)c2cc(C)ccc2S3)cc1OC
    109	109
- Cc1cccc(Cn2cc(C(=O)Nc3cc(F)ccc3F)ccc2=O)c1
    111	117
- O=C(Nc1ccc2nc(SCCOc3ccccc3)sc2c1)c1ccccc1F
    107	104
- Cc1ccc(CCNC(=O)c2ccc3c(c2)N(Cc2ccccc2F)C(=O)c2ccccc2S3=O)cc1 (stereo not given)
    112	109
- CC1=C(C(=O)Nc2ccccc2)C(c2ccc(Br)cc2)n2nc(CCCO)nc2N1 (stereo not given)
    105	106
- Cc1nnc(N2CCC(C(=O)NC(C)C)CC2)c2nn(-c3ccc(Cl)cc3)c(C)c12
    108	109
- O=C(NCCN1CCN(c2ccccc2)CC1)Nc1ccccc1Br
    112	109
- COc1ccc(OC)c(CNc2ncnc3onc(C)c23)c1
    102	91
- CCOc1ccc(-c2nnc(SCC(=O)Nc3cccc(Cl)c3C)o2)cc1
    104	103
- O=C(Cn1c(=O)oc2cc(S(=O)(=O)NCc3ccccc3)ccc21)NCc1ccccc1Cl
    104	109
- COc1ccc(OC)c(CNC(=O)c2cc(-c3ccc(Cl)s3)nc3ccccc23)c1
    106	107
- Cc1ccc(OCCCC(=O)Nc2sc3c(c2C(N)=O)CCC(C)C3)cc1 (stereo not given)
    101	93
- COc1cccc(NC(=O)Cc2ccc(NC(=O)N3CCCCc4ccccc43)cc2)c1
    104	107
- CN(c1ccc(Cl)cc1)S(=O)(=O)c1nnc(NC(=O)C2CCCCC2)s1
    104	102
- Cc1ccc(C)c(N2CCN(S(=O)(=O)c3ccc4c(c3)CCCN4C(=O)C3CCC3)CC2)c1
    107	114
- COc1ccc(-c2nc3c(c(SCc4cc(C)ccc4C)n2)Cc2c(CO)cnc(C)c2O3)cc1
    108	109
- CCOc1cccc2sc(N(Cc3cccnc3)C(=O)C3CCCCC3)nc12
    114	110
- CC(=O)c1ccc(NC(=O)Cn2cc(S(=O)(=O)Cc3cccc(Cl)c3)c3ccccc32)cc1
    110	97
- Cc1cc(C)c2nc(N(Cc3cccnc3)C(=O)c3ccc(S(=O)(=O)N(C)C)cc3)sc2c1
    108	107
- COC(=O)c1c(NC(=O)CCCOc2cccc(C)c2)sc2c1CCC(C)C2 (stereo not given)
    104	97
- Cc1ccc(Cl)cc1NC(=O)C1CCN(c2nc3ccccc3n3cccc23)CC1
    104	108
- O=C(Nc1ccccc1Cl)N1CCC(CN2CCCCC2)CC1
    100	110
- COc1ccccc1CNC(=O)C1CCN(S(=O)(=O)c2ccc3c(ccn3C)c2)CC1
    112	106
- CCOC(=O)CSc1nc2sc3c(c2c(=O)n1Cc1ccccc1)CC(C(C)C)OC3 (stereo not given)
    105	106
- Cc1cc(C)cc(NC(=O)CCC(=O)N2CCSc3ccccc32)c1
    111	115
- Cc1nn2c(=O)cc(COC(=O)c3cccc(NC(=O)c4ccc(F)cc4)c3)nc2s1
    107	105
- CC1CCN(S(=O)(=O)c2ccc3c(ccc(=O)n3CC(=O)Nc3ccc(C(C)C)cc3)c2)CC1
    111	112
- CCOCN(C(=O)CSc1nc2ccccc2[nH]1)c1c(C)cccc1CC
    110	114
- COC(=O)c1sc(-c2ccccc2)cc1NC(=O)Nc1ccc(F)cc1
    104	107
- COc1cccc(NC(=O)Cn2c(=O)cc(C)c3c(C)nn(-c4cccc(F)c4)c32)c1
    102	102
- O=C(CN1C(=O)COc2ccc(S(=O)(=O)N3CCCCCC3)cc21)NCCc1ccccc1
    117	121
- COc1cc(OC)c(NC(=O)c2nnn(Cc3ccc(C)cc3)c2N)cc1Cl
    99	98
- COc1ccc(CNC(=O)CCc2cn(C)c3ccccc23)cc1
    102	105
- Cn1nnnc1SCCCNCc1cc(Cl)ccc1OCc1ccccc1F
    109	106
- O=C(NCCO)c1ccc(-c2nnc(Nc3ccc(OC(F)(F)Cl)cc3)c3ccccc23)cc1
    106	104
- COc1ccccc1N1CCN(C(=O)CCn2nc(C)c(S(=O)(=O)N3CCCC3)c2C)CC1
    106	105
- Cc1cc(C)c(NC(=O)c2cc(S(=O)(=O)N3CCCC3)cn2C)c(C)c1
    106	102
- O=C(Cn1c(=O)n(Cc2nc(-c3ccccc3)no2)c(=O)c2cc3c(cc21)OCO3)Nc1ccccc1
    107	110
- Cc1ccc(-c2noc(CCCC(=O)NCc3ccco3)n2)cc1
    104	106
- Cc1ccc(S(=O)(=O)c2nc(-c3cccc(C)c3)oc2N2CCN(c3ccccc3)CC2)cc1
    106	102
- CC(C)Cn1c(-c2cccc(Br)c2)nc2ccccc21
    102	101
- CCNC(=O)c1nn(-c2ccccc2C)nc1CO
    107	95
- CC1CCCN(c2nc3c(-c4ccc(Cl)cc4)nnn3c3ccccc23)C1 (stereo not given)
    107	108
- COc1cn(CC(=O)Nc2cc(C)ccc2C)c(CN2CCCCC2)cc1=O
    102	100
- CC(C)(C)OC(=O)N1CCC(c2c(C(=O)N3CCc4ccccc4C3)cnn2-c2ccc(F)cc2)CC1
    103	109
- COc1cccc(CNC(=O)c2c(C)nn(-c3ccc(F)cc3)c2-n2cccc2)c1
    108	116

An excerpt (hit frequency here may not be typical).
